RecA intein inh = Mtb RecA intein splicing inhibitors, primary screen, biochemical, fluorescence, HTS; inhibition, %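 (about 9 µM by stock and volumes)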; cell-free RecA intein splicing; 290,000 tested, 0.75% active; in the data active = inhibition above about 30%; inconclusive = no clear call, values can overlap the other calls;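 note: 0% = vehicle wells and 100% = reference inhibitor control wells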
Target sequence (P9WHJ3 whole entry, looked up): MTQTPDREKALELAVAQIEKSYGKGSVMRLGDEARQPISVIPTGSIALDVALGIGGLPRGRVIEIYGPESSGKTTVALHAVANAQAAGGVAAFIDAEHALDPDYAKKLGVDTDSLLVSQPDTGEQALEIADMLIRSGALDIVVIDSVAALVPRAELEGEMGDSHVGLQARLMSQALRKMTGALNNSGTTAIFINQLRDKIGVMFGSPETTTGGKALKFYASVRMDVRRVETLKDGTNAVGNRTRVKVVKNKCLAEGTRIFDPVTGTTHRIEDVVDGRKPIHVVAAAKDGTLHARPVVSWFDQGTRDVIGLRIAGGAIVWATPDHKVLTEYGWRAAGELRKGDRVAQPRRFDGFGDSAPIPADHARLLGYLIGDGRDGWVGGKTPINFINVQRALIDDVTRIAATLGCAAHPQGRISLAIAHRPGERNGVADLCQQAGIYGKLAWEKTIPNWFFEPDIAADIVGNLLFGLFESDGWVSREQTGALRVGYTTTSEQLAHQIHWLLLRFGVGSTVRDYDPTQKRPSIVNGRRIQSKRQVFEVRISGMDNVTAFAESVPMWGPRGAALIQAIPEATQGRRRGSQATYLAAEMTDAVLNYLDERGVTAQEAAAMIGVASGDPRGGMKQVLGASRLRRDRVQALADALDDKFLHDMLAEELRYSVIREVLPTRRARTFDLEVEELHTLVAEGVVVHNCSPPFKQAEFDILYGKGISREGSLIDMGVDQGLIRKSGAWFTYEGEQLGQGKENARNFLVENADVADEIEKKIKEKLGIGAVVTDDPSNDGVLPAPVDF
Mtb bLac sens = beta-lactam sensitization of Mtb H37Rv, H37Rv; M. tuberculosis H37Rv growth with meropenem, percent inhibition; hits of this screen are not shown here; inhibition, % at 25 µM; 330,000 tested, 0.27% active; AID 434955, 2010;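 active = about 74% or more and at least 40 points above the plate without the antibiotic, then above 30% in a dose series; inconclusive = first-round hits that could not be retested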;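 note: growth measured after seven days incubation then overnight dye step; 0% = bacteria only wells and 100% = bacteria with antibiotic; twin plates without the antibiotic show which effects depend on it; some results filed as inactive read as strong as hits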
Arbovirus anti = antivirals against arbovirus infection, primary screen, cell-based, full library, 10K replicate subset | inhibition, % at 10 µM | AID 1251, 2008 | 200,000 tested, 0.37% active | arbovirus infection cell-based antiviral screen;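 active = inhibition from about 30%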;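 note: bluetongue infection of BSR cells; cell survival read as ATP light after 72 h; 0% = infected wells without compound and 100% = uninfected wells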
YopH inh = YopH tyrosine phosphatase inhibitors, primary screen, biochemical, fluorescence Ex485/Em525. YopH tyrosine phosphatase [Yersinia enterocolitica]. 140,000 tested, 0.16% active. AID 898, 2007. inhibition, %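 (about 10 µM by stock and volumes)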;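 active = inhibition of 50% or more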;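 note: controls were vehicle for no effect and minimum signal wells for full effect; inactives centre near -20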
Mtb growth = M. tuberculosis H37Rv growth inhibitors, H37Rv strain (AID 1626); M. tuberculosis H37Rv growth inhibition; higher % means a stronger effect; one-dose inhibition, % at 10 µM; IC50 in µM for titrated hits; 220,000 tested, 0.95% active;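 active = confirmed in a dose series; inconclusive = inhibition above 80% but not taken into the dose series; inactive = below 80% or under 30% at every dose of the series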;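 note: bacteria incubated seven days before Alamar blue readout; 0% = bacteria only wells and 100% = bacteria with antibiotic wells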
Arbovirus anti repeat = recorded beside Arbovirus anti, whose call it bears; inhibition, %; measured here: 10K subset replicate screen; many hits read low in the repeat;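 first of two repeat runs on a subset; 0% = infected and 100% = uninfected wells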
An asterisk follows results filed as active; ? = inconclusive; / = not tested or not shown. A portion of the library (hit frequency here may not be typical).

SMILES	RecA intein inh	Mtb bLac sens	Arbovirus anti	YopH inh	Mtb growth	others
CC(NC(=O)CN(C)S(=O)(=O)c1ccc2c(c1)c(=O)n(C)c(=O)n2C)c1ccccc1 (centres undefined)	-4.1	3	/	/	/
Cc1cc(C(=O)Nc2ccc(N3CCOCC3)c(Cl)c2)c(C)o1	4.7	5	/	/	1%
Cc1ccc(Cl)cc1N1CCN(C(CC(C)C)c2nnnn2CC2CCCO2)CC1 (centres undefined)	0.0	0	-1	-54	-1%
CCCCNC(=O)CCn1ccc2cc(S(=O)(=O)N3CCCC3)ccc21	-1.0	6	/	/	/
Cn1cc([N+](=O)[O-])c(C(=O)Nc2ccc(-c3nc4ccccc4[nH]3)cc2)n1	-1.2	1	20	0	-1%
CCc1ccccc1NC(=O)CCN1C(=O)c2ccccc2C1=O	-0.7	2	10	-29	4%
Cc1ccc(CNC(=O)CCc2c(C)nc3c(c(C)nn3-c3ccc(C)cc3)c2C)cc1	0.3	9	-1	/	/
Oc1ccccc1/C=N/Nc1nc2ccccc2o1	3.3	49	/	/	2%
CCCN(CCC)c1nc2ccccc2nc1C(C#N)C(=O)OC(C)COC (centres undefined)	2.2	9	-28	-41	9%
O=C(O)C1C2C=CC(C2)C1C(=O)OCc1ccccc1 (centres undefined)	-2.5	0	0	-38	15%
CC(=O)c1sc(N)nc1C	-1.3	-2	/	/	/
CCN(CC)CCCNc1nc(N)c([N+](=O)[O-])c(NCCO)n1	-4.2	-3	/	/	-2%
N/C(=N\OC(=O)CCCOc1ccccc1)c1ccccn1	-2.5	7	1	/	12%
COc1cccc(-n2c(-c3ccc4[nH]c(C)c(C)c4c3)n[nH]c2=S)c1	-1.7	2	-8	/	-2%
COc1ccc2c(c1)C(=O)N(c1ccccc1OC)C(=O)C2(C)C	3.6	-4	-4	-33	-1%
O=C(COc1ccccc1Cl)Nc1ccc2c(c1)OCO2	-0.6	-1	/	/	/
O=C(CCc1nc2cccnc2n1Cc1ccccc1)N1CCOCC1	0.7	-2	5	-6	-8%
O=C(CNC(=O)c1ccc(Cl)cc1)OC1CCOC1=O (centres undefined)	0.5	-5	6	/	-5%
COc1ccc(C(C)=O)cc1CSCc1cc(C(C)=O)ccc1OC	0.4	-4	/	/	/
CCN1C(=O)c2ccccc2S(=O)(=O)c2ccc(C(=O)NCCCN(CC(C)C)CC(C)C)cc21	-2.0	-2	/	/	/
Cc1nn(-c2ccccc2)c(Cl)c1/C=N/NC(=O)C1COc2ccccc2O1 (centres undefined)	/	/	7	-26	11%
CN(Cc1ccc2c(c1)OCCO2)C(=O)CN1C(=O)NC2(CCCCC2)C1=O	-5.5	2	/	/	/
O=c1[nH]cnc(O)c1N=Nc1ccccc1	-5.5	4	/	/	/
COc1ccc(Br)cc1-c1nc2c(c(=O)[nH]c(=O)n2Cc2ccccc2)n1C	0.1	1	/	/	/
COc1ccccc1CNC(c1ccccc1)c1ccccc1	1.3	-6	/	/	/
O=C(N1CCOCC1)C12CC3CC(C1)CC(n1cnc(Cl)n1)(C3)C2	-3.5	-10	4	-12	-5%
Cc1cc(NC(=O)CSc2cn(CCNC(=O)c3ccccc3)c3ccccc23)no1	1.2	1	2	-43	-3%	Arbovirus anti repeat=0
CN(C)C(=O)CSc1nnc(C23CC4CC(CC(C4)C2)C3)o1	1.0	?	-4	-33	1%
O=C(N/N=C/c1cc([N+](=O)[O-])cc(Br)c1O)C12CC3CCC(CC(C3)C1)C2	3.0	67	/	/	3%
COc1ccc(C(=O)Nc2nnc(S(=O)(=O)N(C)Cc3ccc(F)cc3)s2)cc1OC	-0.9	2	/	/	/
COc1ccc(NC(=O)CN2CCN(C3c4ccccc4-c4ccccc43)CC2)c(OC)c1	16	/	-7	-61	29%
COc1ccc(-n2c(SCC(N)=O)nc3nc4c(cc3c2=O)COC(C)(C)C4)cc1	0.6	5	10	-31	/
COc1ccc(Nc2nc(-c3cccnc3)cs2)c(OC)c1	-1.0	19	/	/	/
CN(C)S(=O)(=O)c1ccc(S(=O)(=O)NCc2ccc3c(c2)OCO3)cc1	-1.6	-6	/	/	/
O=C1CCC(C(=O)OCC(=O)c2c[nH]c3ccccc23)=NN1	0.7	3	-2	-32	-9%
Cc1ccc(-c2nc(NCc3ccc(F)cc3)n(S(C)(=O)=O)n2)cc1	0.7	6	-6	/	11%
NCCNc1ccc([N+](=O)[O-])c2cccnc12	14	3	-21	/	-4%
Cc1cccc(-n2c3nc(=O)[nH]c(=O)c-3cc3cc([N+](=O)[O-])ccc32)c1	0.7	-5	38*	-24	3%
CC1(C)CC(=O)c2cc(OCC(=O)N3CCOCC3)ccc2O1	-16	-6	7	-4	-10%
Cc1ccc(S(=O)(=O)N2CCN(C(=O)COc3ccc(C)nc3[N+](=O)[O-])CC2)c(C)c1	3.7	1	0	/	-6%
COc1ccccc1C(=O)COC(=O)c1cc(=O)[nH]c2ccccc12	-2.3	-4	/	/	/
O=C(COC(=O)CCN1C(=O)/C(=C\C=C\c2ccccc2)SC1=S)Nc1cc(F)ccc1F	8.6	99	-13	/	-4%
CCCc1cc2c(c(NC(C)=O)n1)c(=O)oc1ccccc12	-0.9	/	1	11	-3%
COc1cc2nc(C3CCC3)nc(N3CCN(c4ccccc4OC)CC3)c2cc1OC	15	99	-30	-18	3.9µM*
O=C(CSc1cccc[n+]1[O-])c1ccc(Cl)cc1	-1.0	99	8	/	?
O=C1CC(c2cccc(Cl)c2)CC(O)=C1C=Nc1cccc(Cl)c1 (centres undefined)	-0.4	2	-36	-13	5%
Cc1nonc1NC(=O)CSc1nc2ccccc2[nH]1	1.1	-3	1	/	-6%
CC(C)(C)C1COc2ccccc2N1C(=O)c1cccc(Cl)c1 (centres undefined)	-6.1	2	/	/	/

Molecules listed so far that contain fluorine:
SMILES	RecA intein inh	Mtb bLac sens	Arbovirus anti	YopH inh	Mtb growth	others
COc1ccc(C(=O)Nc2nnc(S(=O)(=O)N(C)Cc3ccc(F)cc3)s2)cc1OC	-0.9	2	/	/	/
Cc1ccc(-c2nc(NCc3ccc(F)cc3)n(S(C)(=O)=O)n2)cc1	0.7	6	-6	/	11%
O=C(COC(=O)CCN1C(=O)/C(=C\C=C\c2ccccc2)SC1=S)Nc1cc(F)ccc1F	8.6	99	-13	/	-4%

Carrying on.
SMILES	RecA intein inh	Mtb bLac sens	Arbovirus anti	YopH inh	Mtb growth	others
CC(C)(C)C(=O)CSc1nnc(Nc2ccccc2)s1	-1.3	-4	0	/	-2%
O=C(/C=C/c1ccccc1)Nc1cc(C(=O)O)cc(C(=O)O)c1	-2.7	-6	10	/	4%
Cn1nc(C(F)(F)F)c2cc(C(=O)Nc3ccc(F)cc3)sc21	0.4	3	/	/	2%
CCOC(=O)Cc1cc(=O)[nH]c(/N=C(\N)Nc2ccc(C)cc2C)n1	1.4	9	2	16	-1%
O=C(NNC(=O)c1ccccc1OCc1ccccc1)c1ccccc1F	0.6	3	/	/	/
COC(=O)c1cc2n(n1)CCCNC2=O	-0.3	-6	1	/	-1%
CC(C)S(=O)(=O)c1csc(NC(=O)Nc2cccc([N+](=O)[O-])c2)c1Cl	1.9	1	/	/	4%
Cc1cc2c(c(=O)o1)C(C13C=CC(CC1)C3)C(C#N)=C(N)O2 (centres undefined)	/	-1	12	-96	-8%
CCOC(=O)c1sc(NC(=O)c2cc(-c3cccc(O)c3)on2)c(C(=O)OCC)c1C	3.1	6	20	-33	/
COCCNC(=S)NN=C1CCCCCC1	-2.1	/	2	/	-2%
O=C(Nc1ccccc1)NC1CCS(=O)(=O)C1 (centres undefined)	-0.1	0	1	38	-13%
CNC(=O)c1nc(C)n(-c2ccc(Cl)cc2Cl)n1	1.4	1	2	/	4%
CCc1nnc(SCC(=O)Nc2ccc(N3CCOCC3)cc2)n1C	-4.4	-13	/	/	/
CC(C)c1ccc(NC2=NCC(=O)N2Cc2cccs2)cc1	/	14	-9	/	2%
CC(=O)Nc1ccc(NCN2C(=O)[C@@H]3[C@H]4CC[C@H](C4)[C@@H]3C2=O)cc1	2.8	-3	0	-33	5%
Cc1ccc(C)c(OCCC(=O)OCC(=O)N2CCN(S(=O)(=O)c3ccc(Cl)cc3)CC2)c1	1.5	-3	/	/	/
CCCCN(C)/C=N/c1c(C#N)cnn1-c1ccc(C)cc1	0.7	2	-3	-4	10%
CC1(C)CC2(CCO1)N1CC3(C)CN2CC(C)(C1)C3O (centres undefined)	-7.5	-13	-4	-81	0%
CCOc1ccc(NC(=O)c2ccc(N3CC4CC(C3)c3cccc(=O)n3C4)c(NC(=O)c3ccncc3)c2)cc1 (centres undefined)	-0.4	11	/	/	/
CC(C)Cc1nc(Cl)c(C#N)c2c1CCCC2	0.8	-3	24	-21	6%
O=C1c2ccccc2C(=O)N1Cc1nn2c(-c3ccc(Cl)cc3)nnc2s1	1.0	-2	/	/	-18%
COc1ccc(C(C)=O)cc1COC(=O)c1c(C)nn(-c2ccccc2)c1C	2.8	3	/	/	/
CN(C)CCCNC(=S)N(CCCN(C)C)Cc1cc2cc3c(cc2[nH]c1=O)OCO3	-1.2	-5	/	/	/
O=C(NCc1ccco1)C1CC(c2cccc([N+](=O)[O-])c2)=NO1 (centres undefined)	4.8	-12	-9	-33	-6%
CC(=O)CSc1nc2ccccc2s1	1.3	4	-2	-26	-5%
O=C(Nc1cc2c(oc1=O)CCCC2=O)c1ccccc1	-0.8	-7	2	-30	0%
O=C(O)CCCNC(=O)c1ccc(NC(=O)Cc2ccc(Cl)cc2)cc1	-2.4	-4	3	/	3%
COc1ccccc1C(OC(=O)c1ccco1)C(=O)NCc1ccc(F)cc1 (centres undefined)	3.3	1	/	/	/
O=C1CC(c2ccco2)CC(O)=C1C=Nc1ccc(Br)cc1 (centres undefined)	4.7	38	-19	-21	1%
Cc1ccc(NC(=O)Cc2ccc3c(c2)OCCO3)cc1S(=O)(=O)N1CCCCC1	-9.5	-2	/	/	3%
CCOc1ccc(CCNC(=O)CCCn2nc(C)c3c(C)n(-c4ccccc4)nc3c2=O)cc1	-1.8	1	/	/	/
O=C(NCCCN1CCOCC1)C(=O)N/N=C/c1ccc2c(c1)OCO2	-0.7	-6	2	/	-12%
COC(=O)C1=C(C)N(C)C(=S)NC1c1ccc(Cl)cc1 (centres undefined)	2.6	1	2	-20	-1%
CSc1sc(C(=O)OC(C)C)c2c1C(=O)CC(C)(C)C2	-1.3	6	/	/	-8%
COc1ccc(CNC(=O)CN2C(=O)NC(C)(c3ccc(Cl)cc3)C2=O)cc1 (centres undefined)	-0.7	1	/	/	/
Cn1cnnc1SCC(=O)Nc1ccc(OC(F)F)cc1	-0.9	3	3	/	0%
CCn1c(C(=O)N2CCc3ccccc3C2)cc2oc3ccccc3c21	9.0	7	-4	11	1%
O=C(O)CCNS(=O)(=O)c1ccc2c(c1)CCCC2	0.7	-7	10	/	-1%
CCN(CC(=O)Nc1cc(Cl)ccc1C)C(=O)c1ccc2c(=O)n3c(nc2c1)CCC3	-0.8	-6	/	/	/
COc1ccc(-c2nnn(CC(=O)NCc3ccccc3)n2)cc1OC	0.4	10	-15	-21	-2%
CS(=O)(=O)NC1c2cccc3cccc(c23)C1N1CCOCC1 (centres undefined)	0.6	3	0	15	0%
Cc1ccc(C(=O)NCCCNC(=O)COc2ccccc2Cl)cn1	2.9	4	/	/	/
O=[N+]([O-])c1ccc2nc(SCc3cn4cccnc4n3)[nH]c2c1	-5.5	-8	/	/	-13%
CCCn1c(NC(=O)c2ccc(Br)cc2)nc2ccccc21	0.8	97	-10	-20	17µM*
CCOC(=O)c1c(NC(=O)CN2C(=O)NC3(CCCC3)C2=O)sc(C)c1CC	5.9	0	/	/	/
COC(=O)CNC(c1ccccc1)c1cc(Br)ccc1N (centres undefined)	3.9	-10	/	/	3%
NC(=O)CC(NC(=O)c1ccccc1)c1ccc(NCCc2ccc(Cl)cc2)c([N+](=O)[O-])c1 (centres undefined)	-0.3	-5	/	/	-7%
CCOc1ccc(-n2c(O)c(/C=C3\C=Nc4ccccc43)c(=O)[nH]c2=O)cc1	7.8	16	/	/	/

Reprinted from the results shown, 4 compounds:
SMILES	RecA intein inh	Mtb bLac sens	Arbovirus anti	YopH inh	Mtb growth	others
CCOC(=O)c1c(NC(=O)CN2C(=O)NC3(CCCC3)C2=O)sc(C)c1CC	5.9	0	/	/	/
COC(=O)CNC(c1ccccc1)c1cc(Br)ccc1N (centres undefined)	3.9	-10	/	/	3%
NC(=O)CC(NC(=O)c1ccccc1)c1ccc(NCCc2ccc(Cl)cc2)c([N+](=O)[O-])c1 (centres undefined)	-0.3	-5	/	/	-7%
CCOc1ccc(-n2c(O)c(/C=C3\C=Nc4ccccc43)c(=O)[nH]c2=O)cc1	7.8	16	/	/	/
